# Sa RN4220 lethal: growth inhibition of S. aureus RN4220, primary screen, OD600; 16 h; inhibition, % (test concentration not listed); 330,000 compounds, 0.33% hits; AID 1259311, 2017;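 active means z-score of -3 or lower and OD600 up to 0.18 on both plates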;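 further: plate controls were untreated cells for no effect and reference antibiotic for full effect; stock transfer was 100 nL into about 80 µL; one replicate is shown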
# PrP 5UTR inh: inhibition of PrP 5' UTR reporter expression | inhibition, % (concentration not given with the values) | AID 488862, 2010 | 340,000 compounds, 0.35% hits | cell-based PrP 5' UTR mRNA reporter, plate reader;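 active means every replicate at 50% or more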;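 further: 0 = median of the neutral control wells; tested in H4 reporter cells; numbers are from one replicate; inactives centre near -14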
# Sa ugtP lethal: growth inhibition of ugtP-null S. aureus, primary screen, RN4220 ugtP deletion, OD600 | 16 h; some inactives read as strong as hits | growth inhibition, % (test concentration not listed) | 330,000 compounds, 0.54% hits | AID 1259309, 2017;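 active means z-score under -3 and OD600 up to 0.15 on both plates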;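 further: plate controls were untreated wells for no effect and antibiotic for full effect; wells of about 80 µL received 100 nL stock; the first replicate is given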
# BJeLR lethal: MLPCN primary cell-based screen for lethality selective to Ras in HRASV12 cells; inhibition, % (no concentration beside the values); BJeLR (HRASV12) viability, CellTiter-Glo ATP luminescence, 48 h; reference of the scale not given here; 300,000 compounds, 0.17% hits; AID 1554, 2009;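 active means replicate mean above 50%; inconclusive means above 50% but judged a plate artefact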;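 further: 50 nL library stock added to about 25 µL; numbers are from one replicate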
# Autofluor counter: counter-screen for toxin protease inhibitors: compound fluorescence; compound autofluorescence counterscreen, microsphere flow cytometry; active compounds read high; fluorescence intensity (concentration not given with the values); 360,000 compounds, 3.1% hits;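 active means at least 3 SD above the mean of all compounds, about 16000 in these data; inconclusive means too few beads counted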;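 further: 100 nL of 1 mM stock went into each well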
# Mtb hypoxia rep: PubChem AID 1159583. 300,000 compounds, 0.1% hits. fluorescence inhibition, % (test concentration not listed). M. tuberculosis hypoxia-regulated fluorescent reporter, fluorescence;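 active means 35 to 45% if threefold the growth effect, above 45% if 1.5-fold the growth effect; inactive means the rest, general growth blockers included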;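 further: wells of about 50 µL received 100 nL stock; 0% = vehicle wells and 100% = reference inhibitor wells; whole bacteria with a GFP reporter of the hypoxia response; strong numbers were not always called active; many hits fall short of the cut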
# Mtb hypoxia rep growth: second read-out of Mtb hypoxia rep, no call of its own (marks repeat the call); growth inhibition, %; measured here: M. tuberculosis growth (absorbance);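 0% = vehicle and 100% = reference antibiotic; read after six days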
# * marks the source's active call; other numbers are inactive results; ? = inconclusive; . = not tested or not shown. Random draw from the library; any-hit rate near 4%.
cpd	mol	Sa RN4220 lethal	PrP 5UTR inh	Sa ugtP lethal	BJeLR lethal
1	CC1CCCN(c2ccc(C(=O)NCC3CCCO3)cn2)C1 (stereo not drawn)	0.2	-43.9	16.0	-3.0
2	Cc1ccc(-n2c(O)c(C=Nc3ccccc3-c3n[nH]c(=S)[nH]c3=O)c3ccccc3c2=O)c(C)c1	5.1	-27.5	-12.2	-5.1
3	CC(NS(=O)(=O)c1ccc(F)cc1)C(c1cccs1)N1CCN(C)CC1 (stereo not drawn)	0.0	-18.2	-0.5	-10.3
4	CCc1ccc(OCCSc2nc3ccccc3n2CCC(=O)O)cc1	2.7	-20.8	13.2	2.5
5	Cc1ccc(C)n1-c1ccsc1C(=O)CC#N	9.2	-7.9	10.5	10.0
6	COC(=O)/N=C/c1c(NCc2ccccc2)nc2c(C)cccn2c1=O	.	-13.3	.	3.1
7	Cc1cccc(C(=O)N2CCN(c3ccccn3)CC2)c1	5.0	-14.8	-1.4	2.2
8	COc1ccccc1Cn1c(=S)[nH]c2cc(C(=O)NCCN3CCOCC3)ccc2c1=O	7.5	-66.0	-4.2	-7.9
9	CC[C@H](C)C(=O)N[C@H]1CCCN1C(=O)/C=C/c1ccccc1	-11.6	-16.3	-3.3	.
10	O=C1CCC(=O)N1CC(=O)N1CCCc2ccccc21	7.3	-4.5	11.5	-3.6
11	C[C@@H]1NS(=O)(=O)[C@H]2C[C@@H]3C=C[C@]2(O3)[C@H]1OC(=O)Nc1ccc(C(F)(F)F)cc1[N+](=O)[O-]	-13.5	-10.0	-4.1	.
12	c1ccc(-c2ccc3c(c2)c2c4n3CCN=C4CCC2)cc1	-13.6	-1.4	-3.2	-4.7

cpd	Autofluor counter	Mtb hypoxia rep	Mtb hypoxia rep growth
1	10166	5.6	2.2
2	4616	4.0	6.9
3	24274*	3.9	-3.1
4	.	-11.2	-2.5
5	3511	4.1	9.8
6	2544	.	.
7	12808	-1.0	2.9
8	9686	-2.8	0.3
9	3614	11.4	3.3
10	3081	-5.2	8.6
11	4083	5.3	2.4
12	14815	.	.

# New compounds follow:
cpd	mol	Sa RN4220 lethal	PrP 5UTR inh	Sa ugtP lethal	BJeLR lethal
13	O=C(c1ccccc1)n1ccc(-c2cccs2)n1	5.3	-9.6	1.3	-0.4
14	O=c1[nH]c(CN2CCN(CCO)CC2)nc2ccccc12	.	-13.4	.	9.1
15	CCNC(=O)C1CCCN1S(=O)(=O)c1ccc(OC)cc1 (stereo not drawn)	4.6	-15.7	7.7	-7.6
16	O=C(COC(=O)c1ccco1)NNC(=O)c1ccc(Cl)cc1	-0.2	-18.4	-1.4	.
17	Cc1ccc(-c2nc3ccccc3c(=O)n2-c2ncccc2C)cc1	0.5	-22.0	-1.7	6.6
18	CN1C(=O)NC(c2cccc([N+](=O)[O-])c2)C2=C1CCCC2=O (stereo not drawn)	4.6	-10.1	8.1	-12.1
19	CC1CN(C(=O)C(C)OC(=O)c2ccc3ncsc3c2)CC(C)O1 (stereo not drawn)	3.8	-25.6	7.9	.
20	CN(C(=O)COC(=O)c1cc(S(=O)(=O)N2CCCCC2)ccc1Cl)c1ccccc1	1.5	9.2	4.4	.
21	COc1cc(OC)cc(C(=O)NCCNC(=O)c2ccccc2)c1	3.3	-19.1	-0.5	-1.3
22	Cc1cccc(C)c1N(CC(=O)N1CCN(c2ccccc2F)CC1)S(C)(=O)=O	-1.5	-11.6	5.4	-3.7
23	CCSC1=N/C(=C\c2ccccc2)C(=O)N1c1ccc(OC)cc1	-0.8	-12.8	16.1	14.5
24	C=CCc1ccccc1OCC(O)CN(CC)CC (stereo not drawn)	1.4	-18.4	1.3	1.2

cpd	Autofluor counter	Mtb hypoxia rep	Mtb hypoxia rep growth
13	4433	-11.8	-3.6
14	3039	.	.
15	3854	14.4	5.5
16	6055	5.7	4.4
17	9648	5.8	7.4
18	4028	9.9	7.5
19	2660	13.2	3.9
20	4114	-5.6	4.7
21	4329	5.8	4.3
22	5087	-3.8	1.0
23	4521	-8.3	6.2
24	10925	21.8	8.8

# Remaining list, next part.
cpd	mol	Sa RN4220 lethal	PrP 5UTR inh	Sa ugtP lethal	BJeLR lethal
25	O=C(NN=Cc1cccc2ccccc12)C(=O)NN=Cc1cccc2ccccc12	-0.4	-1.8	-4.0	.
26	O=C(c1cccc(F)c1)N1CCCc2ccccc21	2.6	-16.9	1.7	5.5
27	O=C(NCc1ccc(Cl)cc1)C1CCC(CNc2c(N3CCCCC3)c(=O)c2=O)CC1 (stereo not drawn)	2.0	-12.6	-1.3	-1.7
28	CCOC(=O)C1CCN(c2nnc(N3CCCC3=O)s2)CC1	1.1	-25.6	1.6	-2.9
29	COCCNS(=O)(=O)c1cc(-c2nn(C)c(=O)c3ccccc23)ccc1C	3.5	-11.9	4.1	0.3
30	Cc1cc(C(=O)N2CCCC(C(=O)c3ccc(Cl)cc3C)C2)no1 (stereo not drawn)	3.0	10.5	-5.3	-2.4
31	Cc1ccc(NC(=O)c2ccc(-c3nn(C)c(=O)c4ccccc34)cc2)c(C)c1	3.3	-31.7	-11.8	-0.6
32	CC(=O)Cc1nsc(NC(=O)c2cc(-c3cccc(C(F)(F)F)c3)oc2C)n1	2.4	-11.1	5.5	-3.7
33	CC(C)(C)OC(=O)NCC12C=CC(O1)C1C(=O)N(Cc3ccccc3)C(=O)C12 (stereo not drawn)	-0.3	-13.8	-6.1	-7.6
34	Cc1ccc(C)c(N2CCN(C(=O)CCc3nc(-c4cccc(Cl)c4)no3)CC2)c1	3.5	-54.9	-2.0	.
35	COc1ccc(SCC(=O)Nc2ccc(N3CCN(C)CC3)c(F)c2)cc1	2.8	-20.7	1.4	-8.7
36	COc1ccc(C(=O)O)cc1S(=O)(=O)NC(C)C12CC3CC(CC(C3)C1)C2 (stereo not drawn)	9.3	-5.6	1.6	.

cpd	Autofluor counter	Mtb hypoxia rep	Mtb hypoxia rep growth
25	3513	8.4	-0.8
26	4267	2.9	-6.9
27	6176	-15.8	8.0
28	.	1.8	-0.9
29	2973	.	.
30	?	4.0	-8.4
31	9156	13.8	1.4
32	8029	-2.7	-10.3
33	4613	.	.
34	3960	-9.9	4.3
35	4103	14.5	9.0
36	3831	23.6	4.7

# Following part.
cpd	mol	Sa RN4220 lethal	PrP 5UTR inh	Sa ugtP lethal	BJeLR lethal
37	COc1ccc(C(=O)NC(=O)COC(=O)C2COc3ccccc3O2)cc1 (stereo not drawn)	1.3	-18.1	4.3	-5.8
38	CC(C)Nc1ccc(C(CC(N)=O)NC(=O)c2ccc(Br)cc2)cc1[N+](=O)[O-] (stereo not drawn)	0.3	-35.9	-8.7	4.4
39	O=S1(=O)CCN(Cc2ccccn2)CC1	5.9	-36.0	3.1	3.1
40	COc1ccc(C)cc1NC(=O)CN1C(=O)c2cccc3cccc1c23	7.2	-21.3	-9.3	17.4
41	CCOc1ccc(S(=O)(=O)N2CCOCC2)cc1NC(=O)C1=COCCO1	-1.8	-14.0	-7.1	-5.3
42	Oc1c(Cl)cc(Cl)cc1C=NNC(=S)NC1CC2C=CC1C2 (stereo not drawn)	-0.7	.	-30.2	.
43	Cc1ccc(CNc2cnccn2)cc1	-0.4	-21.8	7.1	-7.2
44	Oc1ccc(C2=NNC(c3ccc(O)cc3)=NN2)cc1	5.4	-9.2	8.0	2.9
45	CC1CC(C)CN(CCCNS(=O)(=O)c2ccc3c(c2)oc(=O)n3C)C1 (stereo not drawn)	1.5	-11.7	5.6	-0.1
46	CCOC(=O)C1CCN(S(=O)(=O)c2ccc(-c3cc(C(F)(F)F)n(C)n3)s2)CC1	3.7	.	-10.7	-3.8
47	COc1cc(CN(C(=O)c2cccs2)C2CCS(=O)(=O)C2)cc(OC)c1OC (stereo not drawn)	6.0	3.0	5.0	0.2
48	CCCN1CCN(C(=O)C2CCN(S(=O)(=O)c3c(C)noc3/C=C/c3ccc(C)cc3)CC2)CC1	1.6	-6.3	1.0	-5.5

cpd	Autofluor counter	Mtb hypoxia rep	Mtb hypoxia rep growth
37	4534	.	.
38	3566	-11.6	8.5
39	3883	16.9	9.6
40	4200	14.4	1.3
41	5805	-8.9	3.4
42	.	-4.9	6.5
43	11212	8.3	7.7
44	2983	10.6	-1.1
45	5532	11.6	4.4
46	3424	2.9	4.5
47	5475	7.0	2.4
48	5477	-7.4	5.2

# Following part:
cpd	mol	Sa RN4220 lethal	PrP 5UTR inh	Sa ugtP lethal	BJeLR lethal
49	O=C(NCCCN1CCCC1=O)c1ccc2c(=O)n(-c3ccccc3F)c(=S)[nH]c2c1	1.1	-19.6	-0.5	-1.1
50	CC(NC(=O)c1ccc(Br)o1)C1CCCO1 (stereo not drawn)	5.0	-28.9	9.1	-6.7
51	O=C1NC(c2ccc(Cl)c([N+](=O)[O-])c2)Nc2ccccc21 (stereo not drawn)	-7.1	-7.5	-1.3	6.0
52	CCCCNC(=O)c1ccc2c(SCC(=O)O)c3c(nc2c1)CCCC3	8.3	-7.4	3.4	10.3
53	CSc1ccc(S(=O)(=O)NCC(=O)OCC(=O)N2CC(C)CC(C)C2)cc1[N+](=O)[O-] (stereo not drawn)	2.1	4.6	3.1	-6.6
54	CCN(C[C@H]1N[C@@](Cc2ccccc2)(C(=O)OC)[C@H]2C(=O)N(C)C(=O)[C@@H]12)C(=O)COC	-0.8	-7.9	0.8	.
55	CCOC(=O)c1ccc2c(c1)N(CC)C(=O)c1ccccc1S2	4.4	-5.3	5.9	0.1
56	O=C(OCCN1CCCCC1)c1cccc(Cl)c1	4.0	-31.9	17.5	-3.2
57	Cc1ccccc1-n1nnnc1SC(C)C(=O)NC1CCCc2ccccc21 (stereo not drawn)	6.6	-5.5	2.0	-0.7
58	O=C(CN1CCN(Cc2ccccc2)CC1)Nc1ccc([N+](=O)[O-])cc1C(=O)Nc1ccccc1F	15.0	-13.0	-21.0	7.6
59	N#Cc1ccc(OCC(=O)NNC(=S)NC2CCCCC2)cc1	8.9	4.7	12.8	.
60	CC1(C)CC(=O)N(CC(=O)NCc2ccc(F)cc2)c2ccccc2S1(=O)=O	-0.8	-31.5	5.9	-3.1

cpd	Autofluor counter	Mtb hypoxia rep	Mtb hypoxia rep growth
49	4527	-8.5	0.6
50	4829	.	.
51	4302	-1.6	8.5
52	2511	4.0	2.9
53	4476	10.8	0.5
54	2906	-3.1	-10.0
55	3161	6.2	-10.8
56	3164	-4.6	0.0
57	7722	3.4	1.7
58	2530	5.3	11.0
59	.	-8.0	0.7
60	5638	.	.

# Random excerpt: six records from the list, in no set order.
cpd	mol	Sa RN4220 lethal	PrP 5UTR inh	Sa ugtP lethal	BJeLR lethal
49	O=C(NCCCN1CCCC1=O)c1ccc2c(=O)n(-c3ccccc3F)c(=S)[nH]c2c1	1.1	-19.6	-0.5	-1.1
53	CSc1ccc(S(=O)(=O)NCC(=O)OCC(=O)N2CC(C)CC(C)C2)cc1[N+](=O)[O-] (stereo not drawn)	2.1	4.6	3.1	-6.6
58	O=C(CN1CCN(Cc2ccccc2)CC1)Nc1ccc([N+](=O)[O-])cc1C(=O)Nc1ccccc1F	15.0	-13.0	-21.0	7.6
54	CCN(C[C@H]1N[C@@](Cc2ccccc2)(C(=O)OC)[C@H]2C(=O)N(C)C(=O)[C@@H]12)C(=O)COC	-0.8	-7.9	0.8	.
60	CC1(C)CC(=O)N(CC(=O)NCc2ccc(F)cc2)c2ccccc2S1(=O)=O	-0.8	-31.5	5.9	-3.1
55	CCOC(=O)c1ccc2c(c1)N(CC)C(=O)c1ccccc1S2	4.4	-5.3	5.9	0.1

cpd	Autofluor counter	Mtb hypoxia rep	Mtb hypoxia rep growth
49	4527	-8.5	0.6
53	4476	10.8	0.5
58	2530	5.3	11.0
54	2906	-3.1	-10.0
60	5638	.	.
55	3161	6.2	-10.8

# (continued)
cpd	mol	Sa RN4220 lethal	PrP 5UTR inh	Sa ugtP lethal	BJeLR lethal
61	COCCCNC(=S)NNC(=O)c1cc(Cl)c(O)c(Cl)c1	3.9	-10.3	7.2	-2.1
62	Cc1c(NC(=O)CSc2ccc3ccccc3n2)c(=O)n(-c2ccccc2)n1C	3.6	-10.0	3.3	.
63	COc1ccc(C2CC(=O)C=C(c3ccc(F)cc3OCc3ccccc3)C2)cc1 (stereo not drawn)	2.8	.	6.2	.
64	Cc1cccc(N2CCN(C(=O)CCC(=O)N3CCOc4ccc(Cl)cc43)CC2C)c1 (stereo not drawn)	-8.3	-23.3	-9.0	2.6

cpd	Autofluor counter	Mtb hypoxia rep	Mtb hypoxia rep growth
61	3608	-7.4	-8.8
62	4001	10.0	0.1
63	.	16.3	11.9
64	5505	13.4	8.9
